# Source: PubChem (several laboratories)
# Ecoli growth – E. coli growth inhibition, primary screen, OD600; OD600 absorbance (concentration not given with the values); actives 0.21% (n = 330,000); AID 1053175, 2014; Escherichia coli growth, 23 h; hits give low values;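 active means OD600 absorbance below the run mean of sample wells minus 3.6 SD, in any replicate, cut at about 0.56 in these data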;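 further: stock transfer was 300 nL into about 60 µL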
# UCH37 inh – inhibitors of human UCH37 deubiquitinase, primary screen, biochemical, Ub-AMC cleavage, fluorescence. Ubiquitin carboxyl-terminal hydrolase isozyme L5 (Homo sapiens), Q9Y5K5. purified proteasome/UCH37. inhibition, % (test concentration not listed). actives 0.33% (n = 330,000). AID 588478, 2011;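 active means mean of two replicates above 20%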;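 further: 0% = compound-free wells with enzyme and 100% = wells lacking proteasome; stock transfer was 100 nL into about 20 µL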
# Target sequence (Q9Y5K5 whole entry, looked up): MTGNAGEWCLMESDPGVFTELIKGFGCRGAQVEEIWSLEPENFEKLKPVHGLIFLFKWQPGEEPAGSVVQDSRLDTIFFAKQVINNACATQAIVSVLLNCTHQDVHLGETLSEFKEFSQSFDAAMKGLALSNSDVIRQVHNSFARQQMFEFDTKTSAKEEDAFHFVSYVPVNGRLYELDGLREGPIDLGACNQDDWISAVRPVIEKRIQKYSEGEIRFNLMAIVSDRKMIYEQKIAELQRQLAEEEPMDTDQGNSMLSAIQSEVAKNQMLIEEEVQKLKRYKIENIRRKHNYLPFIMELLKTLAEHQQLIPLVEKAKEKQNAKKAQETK
#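 assay system = human UCH37 enzyme supplied as purified proteasome complex | amount = proteasome at 0.15 nM in the dispensed enzyme solution | schedule = 30 min compound-proteasome preincubation then 25 min substrate reaction, room temperature | measured by = fluorescence, ex 355 nm, em 460 nm | benchmarks = no-proteasome wells (full inhibition) and compound-free wells (no inhibition)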
# Beta cell apopt – inhibitors of cytokine-induced beta cell apoptosis, primary screen, luminescence. INS-1E cytokine-induced death, ATP luminescence, 48 h; percent of positive-control rescue, neutral wells zero. protection from apoptosis, % (concentration not given with the values). actives 0.8% (n = 300,000). AID 435005, 2010;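 active means all replicates at 75% or more, or half of them and the mean; inconclusive means half reach 75% but not the mean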;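 further: 0% = cytokine-treated negative control wells and 100% = positive control rescue; higher means more ATP so stronger rescue from cytokine killing; wells of about 40 µL received 100 nL stock; the first replicate is given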
# MLL AF4-AF9 inh – inhibitors of AF4 peptide binding to AF9, primary screen, biochemical, AlphaScreen, biotin-AF4 peptide, FLAG-AF9, single point; Protein AF-9 (Homo sapiens), P42568; inhibition, % at 10 µM; actives 0.47% (n = 350,000); AID 651704, 2012;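 active means every replicate reaching a set inhibition limit, whatever the replicate mean, cut at about 25% in these data; inconclusive means mean inhibition reaches that limit but some replicates miss it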;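 further: 0% = plate neutral control median and 100% = total signal loss; the record names both 10 and 1 µM as test concentration; the first replicate is given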
# Target sequence (P42568 whole entry, looked up): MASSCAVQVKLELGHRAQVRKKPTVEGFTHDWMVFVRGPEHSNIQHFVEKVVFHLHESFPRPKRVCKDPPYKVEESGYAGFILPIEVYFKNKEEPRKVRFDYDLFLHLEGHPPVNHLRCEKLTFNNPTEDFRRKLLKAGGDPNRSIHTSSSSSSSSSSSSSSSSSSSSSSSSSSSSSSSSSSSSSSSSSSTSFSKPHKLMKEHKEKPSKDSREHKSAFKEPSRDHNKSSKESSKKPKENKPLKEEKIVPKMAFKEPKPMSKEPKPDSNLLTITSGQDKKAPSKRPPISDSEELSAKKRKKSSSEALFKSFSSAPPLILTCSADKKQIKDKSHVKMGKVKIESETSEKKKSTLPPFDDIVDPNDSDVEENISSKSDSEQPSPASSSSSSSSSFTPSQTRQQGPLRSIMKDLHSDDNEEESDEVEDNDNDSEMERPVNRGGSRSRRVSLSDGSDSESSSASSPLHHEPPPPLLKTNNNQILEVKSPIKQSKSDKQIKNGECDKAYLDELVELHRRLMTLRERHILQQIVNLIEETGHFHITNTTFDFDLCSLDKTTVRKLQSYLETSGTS
# T cruzi repl – inhibitors of intracellular T. cruzi growth, primary screen, luminescence, NIH3T3 host cells. actives 1.4% (n = 300,000). T. cruzi beta-gal in NIH3T3, 90 h. inhibition, % (test concentration not listed);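 active means mean inhibition across valid replicates above about 55%, limit read from the data; inconclusive means mean below that limit but half or more replicates reach it; inactive means mean below it, under half of replicates reach it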;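 further: signal also drops with host cell toxicity which is not excluded here; 0% = plate median of DMSO wells and 100% = zero luminescence signal; higher percent means less beta-gal luminescence so fewer parasites; stock transfer was 50 nL into about 50 µL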
# Ecoli rRNA inh – reduced GFP signal of wild-type E. coli, primary screen, bacterial rRNA inhibitor project, GFP/RFP fluorescence, OD600, single point; E. coli WT GFP vs humanized-ribosome RFP mutants, 24 h; hits give low values; DMSO median 0, no signal -100; GFP signal change (wild-type ribosome), % (concentration not given with the values); actives 1.6% (n = 350,000);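 active means significant combined selectivity score with lowered wild-type GFP, culture density cut under 30%, mutant RFP and density less affected; inactive means any of these conditions unmet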; further: one replicate is shown; some compounds called inactive have numbers as strong as hits
# FGF22 binding – binders of human FGF22 protein, primary screen, FGF22 synaptogenesis inhibitor project, biophysical, thermal shift, single point | Fibroblast growth factor 22 (Homo sapiens), Q9HCT0 | recombinant FGF22 thermal shift, SYPRO orange fluorescence; percent of sucrose octasulfate shift, DMSO zero | calls only at 9.99 µM | actives 1.5% (n = 340,000);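 active means melting point raised past a set limit in the mean and every replicate; inconclusive means no clear call; three in four hits are not shown here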
# Bfl-1 A1 inh – caspase 3/7 activation in MEF A1-2A-BIM cells, primary screen, A1 inhibitor project, cell-based, luminescence, HTS. Caspase-Glo 3/7 luminescence, 3 h; percent of clofoctol response, vehicle zero. caspase activation, % (concentration not given with the values). actives 0.066% (n = 330,000);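 active means over half of replicate activation scores above 10%, or exactly half above 10 with the replicate mean above 10; inconclusive means replicate mean below 10 yet half the replicates above 10; inactive means over half of replicates below 10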;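 further: wells of about 30 µL received 50 nL stock; many hits fall short of the cut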
# Ecoli rRNA inh OD600 – also measured in Ecoli rRNA inh; calls as there; OD600 change, %; measured here: OD600 growth;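 optical density of the mix in the first replicate; 0 = DMSO median and -100 = no signal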
# Ecoli rRNA inh RFP – recorded beside Ecoli rRNA inh, whose call it bears; RFP signal change, %; measured here: RFP humanized mutant strains;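 first replicate; 0 = DMSO median and -100 = no signal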
# * hit, by the source's call; i = inactive; ? = inconclusive; . = not tested or not shown. The list is partial; the hit share may differ from the screen's.
# The line under a structure holds: Ecoli growth	UCH37 inh	Beta cell apopt	MLL AF4-AF9 inh	T cruzi repl	Ecoli rRNA inh	Ecoli rRNA inh OD600	Ecoli rRNA inh RFP	FGF22 binding	Bfl-1 A1 inh
- Cc1ccc2c(c1)C(=O)N1[C@H]3c4cc(C)ccc4OC[C@@H]3[C@H](c3ccccc3)[C@]1(C)C(=O)N2
  .	0.9	7	3.7	.	14	11	-1.2	i	0.3
- COCCn1c(SCC(=O)N2CCCCCC2)nnc1-c1ccco1
  0.7	1.3	1	-0.1	-5	2	7	-1.0	i	-0.1
- CCC(CC)CN1C(Nc2ccccc2)=NC[C@@H]1CC(C)C
  .	0.5	-2	.	13	.	.	.	.	0.2
- CC(C(=O)N1CCN(C2c3ccccc3-c3ccccc32)CC1)N1C(=O)c2ccccc2C1=O (stereo not given)
  0.7	0.9	4	.	11	.	.	.	.	-0.1
- Nc1cc(SCc2ccc(Cl)cc2Cl)ncn1
  0.67	3.5	.	-0.9	.	-18	-6	-8.2	i	.
- CCNC(=O)CC1S/C(=N/N=C(\C)c2ccccc2)NC1=O (stereo not given)
  .	.	0	-3.1	-26	0	4	-1.2	i	-0.9
- Cc1ccc(NS(=O)(=O)c2ccc(C(=O)NCCN3CCOCC3)cc2)cc1
  0.71	1.8	0	-1.1	.	1	13	-0.2	i	0.2
- CCCCCOc1ccc(C(=O)NCC2(c3ccccc3)CCOCC2)cc1
  0.63	2.4	4	.	33	.	.	.	.	0.2
- CC(C)(C)NC(=O)c1ccnc(C(C)(C)C)c1
  0.67	2.1	-8	.	1	.	.	.	.	-0.8
- CCN(CC(=O)Nc1ccccc1C(F)(F)F)C(=O)CCOc1ccccc1C
  0.68	5.5	-4	-18	-7	-14	-10	1.3	i	0.0
- O=C(Cn1cnc([N+](=O)[O-])n1)N/N=C/c1ccc(O)cc1O
  .	.	.	-1.7	6	2	-4	-2.7	i	0.5
- CC12CN(Cc3ccccc3)CC(C)(CN(Cc3ccccc3)C1)C2=NO
  0.68	2.2	-4	.	8	.	.	.	.	-0.3
- CCOC(=O)N1CCN(C(=O)COc2ccccc2[N+](=O)[O-])CC1
  0.73	2.8	-2	-3.9	-3	0	2	-2.1	i	0.0
- CC(=O)N1CCN(C(=O)c2ccc(Cl)c(NC(=O)c3cccs3)c2)CC1
  0.67	0.9	0	0.5	-12	8	10	-1.0	i	0.1
- NC(=O)c1cc[n+](CC2=C(C(=O)O)N3C(=O)[C@@H](NC(=O)C(c4ccccc4)S(=O)(=O)[O-])[C@H]3SC2)cc1 (stereo not given in full)
  .	7.3	-6	.	19	.	.	.	.	0.4
- Cn1ccc2cc(-c3csc(N4CCC(C(N)=O)CC4)n3)ccc21
  0.68	3.1	-16	.	.	.	.	.	.	0.0
- CC1=C(N2CCOCC2)CCC1=O
  0.71	2.1	-8	-1.4	-10	10	9	-3.0	i	1.4
- CCc1nc(NCCCN2CCOCC2)c2oc3ccccc3c2n1
  0.59	-0.1	0	.	-1	.	.	.	.	0.8
- O=C(c1ccc(Cl)cc1)C1CCN(Cc2ccccc2)CC1
  0.68	4.9	-2	2.2	20	-5	4	-2.2	i	?
- CC(C)(/C=N/O)/[N+]([O-])=C/c1ccccc1
  .	.	0	-1.6	6	9	10	6.0	i	-0.4
- O=C(Nc1ccccn1)C1COc2ccccc2O1 (stereo not given)
  0.66	4.7	-7	-41	-1	4	1	-3.1	i	-6.1
- O=C(Nc1ccc(CSc2ccccc2)cc1)c1ccccc1
  0.73	3.5	-3	0.5	-6	26	18	-2.1	i	-8.0
- N#Cc1ccc2ccn(CC(=O)NCc3ccco3)c2c1
  0.72	-10	-1	.	0	.	.	.	.	-0.7
- CCOc1ccccc1NC(=S)NC(=O)CCc1ccccc1
  0.73	3.6	.	-1.4	-1	3	1	-4.7	i	.
- O=C(c1cnn2ccccc12)N(Cc1ccco1)C1CCCC1
  0.73	4.6	.	-4.9	2	-11	-17	0.5	i	-0.6
- O=C(CSc1nnc(-c2ccccc2)n1C1CCCCC1)N1CCCC1
  0.73	1.6	4	.	8	.	.	.	.	0.3
- O=C(C1=C[C@H](c2ccccc2)C[C@H](OCCCCO)O1)N1CCN(Cc2ccc3c(c2)OCO3)CC1
  .	3.9	-13	-3.6	39	0	6	1.1	i	-0.4
- Clc1ccc(CSc2nnc(-c3ccncc3)s2)cc1
  0.65	2.0	-6	.	59*	7	0	-4.2	i	-0.2
- CCOC(=O)C(NC(=O)NCc1ccccc1)(OCC)C(F)(F)F (stereo not given)
  0.71	1.0	1	.	-1	.	.	.	.	0.1
- Nn1c(SCC(=O)N2CCCCCC2)nnc1-c1ccco1
  0.71	2.7	-4	-0.6	.	17	10	0.0	i	-0.3
- CCOc1ccc(Nc2cc(Nc3ccccc3OCC)nc(C=C(C#N)C#N)n2)cc1
  0.63	3.6	2	-3.0	-19	11	9	0.3	i	0.2
- COc1ccccc1CNS(=O)(=O)CC12CCC(CC1=O)C2(C)C (stereo not given)
  0.67	2.0	-1	2.5	6	-4	5	-2.3	i	0.7
- O=C(NCCS(=O)c1ccc(Cl)cc1)c1cccc(Cl)c1 (stereo not given)
  0.66	-0.3	.	1.7	-17	-26	-44	20	i	0.5
- CNC(=O)c1c(NC(=O)CCS(=O)(=O)c2ccc(Cl)cc2)sc2c1CCN(C(=O)OC)C2
  0.62	3.0	.	6.6	18	2	-2	7.6	i	1.0
- CCOC(=O)c1cnc2ccc(C(=O)OC)cc2c1NCCN1CCOCC1
  0.68	-7.4	3	7.6	38	-27*	-13*	-4.2*	i	0.0
- CCOC(=O)[C@H]1[C@H]2COc3ccccc3[C@@H]2N2C(=O)c3cc(Cl)ccc3NC(=O)[C@@]12C
  .	2.4	1	11	.	-11	-18	-23	i	0.4
- CC(C)n1c(N2CCN(C(=O)Nc3ccc(F)cc3F)CC2)nc2ccccc21
  0.74	-0.1	-4	.	1	.	.	.	.	-1.2
- Cc1sc2nc(C(C)(C)C)oc(=O)c2c1C
  0.75	0.6	-4	11	-4	10	5	-5.1	i	-0.4
- O=C(N/N=C/c1ccoc1)c1ccccc1F
  .	.	-3	-1.9	-3	16	20	-1.7	i	-0.9
- Cc1c(Br)cnn1C(C)C(=O)N1CCN(c2ccccc2F)CC1 (stereo not given)
  0.72	4.5	-6	0.4	.	0	-10	0.8	i	-0.2
- O=C(Nc1cccc2ncccc12)c1ccc(-c2ccc(Cl)cc2Cl)o1
  0.7	3.7	1	.	5	.	.	.	.	0.2
- CCOc1ccc(CCNC(=O)COC(=O)CNC(=O)c2ccc(Br)o2)cc1OCC
  0.69	4.2	-4	-0.7	-3	7	1	0.6	i	-0.2
- CCCOc1cccc(C(=O)NC(=S)Nc2ccc(N3CCN(C)CC3)cc2)c1
  0.62	1.6	.	12	48	-6	-5	-2.0	i	-0.4
- COc1ccc(NC(=O)CSc2nc3ccccc3nc2N2CCOCC2)cc1
  0.79	-2.5	2	11	1	-9	-6	4.4	i	1.0
- Clc1cccc(-c2ccc(-c3nc4ccccn4c3NCc3ccccc3)cc2)c1
  0.73	i	.	2.8	.	-13	-22	2.5	i	.
- Cc1ccccc1N(C(=O)Cc1cccs1)C(C(=O)NC1CCCCC1)c1cn(C)nc1C (stereo not given)
  0.67	-0.9	5	.	6	.	.	.	.	0.3
- COc1ccc(Cl)cc1NC(=S)NNC(=O)c1cccs1
  0.72	0.3	3	-0.2	-5	-32*	-16*	-8.9*	i	0.1
- CC(C)(C)NC(=O)CC1C[C@H](C(=O)N2CCCCC2)[C@@]2(C)c3[nH]c4ccccc4c3CCN2C1=O (stereo not given in full)
  0.68	2.1	-7	-2.8	.	27	14	0.2	i	0.3
- O=C(NCCCNC(=O)c1ccco1)c1cccc(F)c1
  0.67	0.7	.	0.6	1	4	10	-0.2	i	0.2
- CN(C1CCCCC1)S(=O)(=O)c1ccc(S(=O)(=O)N(CC(=O)Nc2ccccc2)C2CC2)cc1
  0.7	1.4	6	4.5	40	13	4	-3.5	i	-0.4
- CC(NC(=O)c1ccc(S(=O)(=O)NCc2ccco2)cc1)c1ccc(F)cc1 (stereo not given)
  0.69	1.7	-2	-1.3	.	4	-1	-1.3	i	0.6
- O=C(CCc1nnc(CCCCc2ccccc2)o1)N(CCO)Cc1ccccc1
  0.73	2.5	.	-5.7	-7	4	-3	2.2	i	-0.8
- CCN(CC)C(=O)Oc1cc(=O)n(C)c2ccccc12
  0.69	2.6	-12	.	6	.	.	.	.	0.1
- CCN(CC)CCN(C(=O)c1cc2c(ccc3ccccc32)oc1=O)c1nc2cc3c(cc2s1)OCCO3
  0.71	-114	102*	5.7	21	-20	-35	2.0	i	7.2*
- O=[N+]([O-])c1cc2c(cc1CN1CCN(c3ccccc3F)CC1)OCO2
  0.72	3.1	-11	-1.7	-3	3	8	0.5	i	0.2
- CC(OC(=O)CNC(=O)c1sc2ccccc2c1Cl)c1ccccc1 (stereo not given)
  0.67	0.0	-2	0.9	.	-12	-25	0.7	i	0.6
- Cc1ccc(C(=O)N[C@@H](Cc2ccccc2)C(=O)N2CCC3(CC2)NCCc2[nH]cnc23)cc1C
  0.71	4.3	-1	5.1	1	19	16	5.8	i	0.6
